Ecoli growth – E. coli growth inhibition, primary screen, OD600; Escherichia coli growth, 23 h; stronger effect = lower value; OD600 absorbance (concentration not given with the values); actives 0.21% (n = 330,000); AID 1053175, 2014;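 active = OD600 absorbance below the run mean of sample wells minus 3.6 SD, in any replicate, cut at about 0.56 in these data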;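 also: stock transfer was 300 nL into about 60 µL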
LANA-H2B inh – blockers of LANA interaction with H2A/H2B – biochemical, FP readout, HTS, primary screen | inhibition, % (concentration not given with the values) | cell-free LANA-H2A/H2B peptide, fluorescence polarization | Protein LANA1 (Human herpesvirus 8 type P (isolate GK18)), Q9QR71 | actives 0.6% (n = 320,000); in the data active = inhibition mostly above about 10%, no sharp cut-off; inactive = mostly below about 6.7%;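 also: stock transfer was 7.5 nL into about 10 µL; 0% = median of vehicle wells and 100% = median of positive control wells; one replicate is shown; the record names a cut of 25% in any replicate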
Beta2AR agonist – beta2AR agonists driving receptor internalization, primary screen, cell-based, FAP fluorogen, flow cytometry. Am2.2-beta2AR cells; reference of the scale not given here. response, % (concentration not given with the values). actives 0.43% (n = 340,000). AID 504454, 2011;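 active = response above a set limit, near 3 SD of response in nonfluorescent compounds, cut at about 42% in these data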;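 also: stock transfer was 100 nL into about 11 µL; a reference agonist was the positive control; negative values mostly stem from fluorescent compounds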
HNF4A DNA FP – change in binding of human HNF4A to DNA, primary screen, biochemical, fluorescence polarization, FITC-DNA; activity change, % at 10 µM; Hepatocyte nuclear factor 4-alpha (Homo sapiens), P41235; 1 h; AID 1224865, 2016; actives 0.3% (n = 360,000); in the data active = activity change above about 30%, passing the limit was not always enough;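 also: controls were the assay level and a saturating level of protein; the project sought stronger binding though the title names inhibitors; some compounds called inactive have numbers as strong as hits; positive values seem to mean higher polarization but the record does not say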
Target sequence (P41235 whole entry, looked up): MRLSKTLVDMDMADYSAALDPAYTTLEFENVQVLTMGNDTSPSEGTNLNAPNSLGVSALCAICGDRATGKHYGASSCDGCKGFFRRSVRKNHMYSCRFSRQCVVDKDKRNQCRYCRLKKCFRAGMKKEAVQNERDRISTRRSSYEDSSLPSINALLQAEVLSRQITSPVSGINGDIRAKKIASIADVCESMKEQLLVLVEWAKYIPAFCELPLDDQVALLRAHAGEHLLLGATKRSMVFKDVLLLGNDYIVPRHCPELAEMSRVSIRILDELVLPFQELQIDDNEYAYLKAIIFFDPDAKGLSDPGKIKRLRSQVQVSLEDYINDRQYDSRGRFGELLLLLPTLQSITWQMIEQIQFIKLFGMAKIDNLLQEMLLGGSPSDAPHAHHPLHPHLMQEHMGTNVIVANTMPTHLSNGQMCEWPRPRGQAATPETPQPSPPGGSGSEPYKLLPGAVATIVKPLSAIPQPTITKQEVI
UCH37 inh – inhibitors of human UCH37 deubiquitinase, primary screen, biochemical, Ub-AMC cleavage, fluorescence; inhibition, % (test concentration not listed); purified proteasome/UCH37; actives 0.33% (n = 330,000); Ubiquitin carboxyl-terminal hydrolase isozyme L5 (Homo sapiens), Q9Y5K5;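 active = mean of two replicates above 20%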;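 also: 0% = compound-free wells with enzyme and 100% = wells lacking proteasome; stock transfer was 100 nL into about 20 µL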
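Assay system: Proteasome-bound UCH37. Buffer or medium: pH 7.4 Tris-HCl (50 mM) with ovalbumin, ATP-MgCl2, DTT. Incubation: 30 min preincubation with enzyme, 25 min cleavage at room temperature. Measured by: fluorescence, ex 355 nm, em 460 nm. Read-out basis: percent inhibition. Control set: wells without proteasome as full block, compound-free enzyme plus substrate as uninhibited.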
ALR inh – inhibitors of human ALR sulfhydryl oxidase, primary screen, biochemical, H2O2 detection, HRP-luminol luminescence, single point; FAD-linked sulfhydryl oxidase ALR (Homo sapiens), P55789; purified ALR, DTT oxidation; inhibition, % (concentration not given with the values); actives 3.8% (n = 290,000);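 active = mean and each replicate at 75% or more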;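 also: stock transfer was 7.5 nL into about 7.5 µL; 0% = neutral wells and 100% = wells with inactivated enzyme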
Target sequence (P55789 whole entry, looked up): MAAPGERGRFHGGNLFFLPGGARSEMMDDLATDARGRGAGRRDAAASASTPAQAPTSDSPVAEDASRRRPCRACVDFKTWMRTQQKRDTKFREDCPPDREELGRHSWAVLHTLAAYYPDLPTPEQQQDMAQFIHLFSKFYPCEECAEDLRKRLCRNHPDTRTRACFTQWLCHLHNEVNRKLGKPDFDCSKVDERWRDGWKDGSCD
FGF22 binding – binders of human FGF22 protein, primary screen, FGF22 synaptogenesis inhibitor project, biophysical, thermal shift, single point; calls only at 9.99 µM; AID 651658, 2012; actives 1.5% (n = 340,000); Fibroblast growth factor 22 (Homo sapiens), Q9HCT0; recombinant FGF22 thermal shift, SYPRO orange fluorescence; percent of sucrose octasulfate shift, DMSO zero;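 active = melting point raised past a set limit in the mean and every replicate; three in four hits are not shown here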
Target sequence (Q9HCT0 whole entry, looked up): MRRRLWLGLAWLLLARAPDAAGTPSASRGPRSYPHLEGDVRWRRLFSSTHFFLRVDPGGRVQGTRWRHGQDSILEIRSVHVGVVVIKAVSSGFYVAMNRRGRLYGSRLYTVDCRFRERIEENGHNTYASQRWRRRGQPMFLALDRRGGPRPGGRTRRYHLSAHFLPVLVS
* hit, by the source's call; i = inactive; · = not tested or not shown. A portion of the library; count on the stated rates, not on these rows.

no.	molecule	Ecoli growth	LANA-H2B inh	Beta2AR agonist	HNF4A DNA FP	UCH37 inh	ALR inh	FGF22 binding
1	CC(=O)Nc1cccc(C(=O)NC(C)c2ccc(S(N)(=O)=O)cc2)c1 (centres undefined)	0.77	-2.5	1	-4.1	-3.3	-5	·
2	CC1=CC(C)(C)N(C(=O)CSc2nnc(-c3ccc(C)cc3)o2)c2ccc(C)cc21	0.75	5.7	0	-1.9	5.2	1	·
3	COc1ccccc1CN(Cc1nc2ccccc2c(=O)[nH]1)C(=O)Nc1ccccc1	0.69	-0.2	-2	0.2	0.8	8	·
4	CCn1c(/C=N/Nc2ccc(C(=O)O)cc2)nc2ccccc21	·	4.8	3	-0.4	·	18	i
5	C=CCn1c(Cc2c[nH]c3ccccc23)nnc1SCC(=O)NCc1ccccc1	0.72	-1.2	-7	-3.1	2.9	2	·
6	O=C(NC(=S)NC1CCCCC1)c1ccccc1[N+](=O)[O-]	0.7	-1.5	-2	1.3	1.1	10	i
7	O=C(NCCCn1ccnc1)c1cc(-c2cccnc2)nc2ccc(Br)cc12	0.68	-0.9	-8	-0.1	5.3	·	i
8	Cc1ccc(C(=O)CSc2nnc(-c3cccs3)n2C)o1	0.73	3.0	-21	0.6	7.8	49	i
9	O=C1NC(=O)C(Cc2cccc(Oc3ccccc3)c2)S1 (centres undefined)	0.66	3.6	8	-3.8	2.7	9	i
10	CCN1CCN(C(c2cccs2)C(C)NC(=S)NC2CCCCC2)CC1 (centres undefined)	0.69	1.0	1	-4.2	3.2	1	i
11	Nc1nc(CN2CCN(Cc3ccccc3)CC2)nc(Nc2ccccc2)n1	0.66	-2.4	-15	0.8	4.0	-1	i
12	O=C(NCC1CCCO1)c1cc(-c2ccccc2F)no1 (centres undefined)	0.69	6.3	1	-1.9	5.2	-10	i
13	CNc1ccccc1C(C)(C)c1cc(C)[nH]n1	0.68	-1.2	-3	1.2	2.1	10	·
14	O=C(NCCCN1CCCC1=O)c1ccc2c(c1)OCO2	0.65	1.7	-1	2.0	-0.3	-3	i
15	Cc1sc(NC(=O)c2ccccc2)c(C(=O)c2ccccc2)c1C	0.73	-4.4	-8	0.5	4.4	13	i
16	Cc1cc(C(=O)N/N=C/c2cc(Br)ccc2OC(=O)c2ccccc2)n[nH]1	·	0.9	3	1.6	·	21	·

Next part; the last 2 above are carried over.
no.	molecule	Ecoli growth	LANA-H2B inh	Beta2AR agonist	HNF4A DNA FP	UCH37 inh	ALR inh	FGF22 binding
15	Cc1sc(NC(=O)c2ccccc2)c(C(=O)c2ccccc2)c1C	0.73	-4.4	-8	0.5	4.4	13	i
16	Cc1cc(C(=O)N/N=C/c2cc(Br)ccc2OC(=O)c2ccccc2)n[nH]1	·	0.9	3	1.6	·	21	·
17	COc1cc(-c2nnc(COC(=O)c3cc(C)no3)o2)cc(OC)c1OC	0.71	-5.2	-3	5.6	0.7	-1	i
18	COc1ccccc1NC(=O)CCN1C(=O)c2ccccc2S1(=O)=O	0.7	1.4	-5	-5.5	-0.4	·	i
19	COc1cc(CC(=O)Nc2ccc(S(=O)(=O)N(C)C)cc2)cc(OC)c1OC	0.73	-0.9	2	0.4	3.3	-2	·
20	COc1ccc(Cl)cc1NC(=O)COc1cccc(-n2cnnn2)c1	0.72	-0.9	-10	0.0	0.5	-24	·
21	COc1ccccc1NC(=O)Nc1ccc(F)c(F)c1	0.65	8.6	9	0.9	3.3	-3	i
22	COc1ccc(OCC(=O)Nc2ccccc2C(=O)Nc2ccc(C(=O)O)cc2)cc1	0.71	1.0	2	-1.3	5.4	·	i
23	COc1ccc(-n2nc(C(=O)NCC(=O)N3CCCC3)c3ccccc3c2=O)cc1	0.7	2.0	-12	-0.7	2.0	0	i
24	Cc1cccc(C)c1NC(=S)N(Cc1cccs1)C1CCCC1	0.69	-0.5	0	4.3	1.4	·	i
25	Cc1c(C#N)c(O)[nH]c(=O)c1N=Nc1ccc(S(N)(=O)=O)cc1	0.7	-0.9	-6	7.4	16	-12	i
26	Cc1ccc(NC(=O)Cc2ccc(-c3ccccc3)cc2)nc1	0.71	2.0	-6	0.5	-10	2	i
27	CS(=O)(=O)c1ccc(Sc2nc3ccccc3s2)c([N+](=O)[O-])c1	0.71	0.1	2	0.0	4.0	3	·
28	CC1CCN(c2ncnc3c2cnn3-c2ccccc2)CC1	0.74	2.6	-3	2.2	2.5	0	i
29	COc1cc(C(=O)NCc2ccc(C)cc2)ccc1OC(F)F	0.68	-2.2	5	-1.8	1.7	-15	·
30	COc1ccc(-c2ccc(-c3cc(=O)oc4cc(OC)c(OC)c(OC)c34)cc2)cc1F	·	·	-2	-1.4	·	·	i
31	Cc1cccc(NC(=O)C2CC(=O)N/C(=N/N=C/c3ccco3)S2)c1 (centres undefined)	·	1.6	-4	-4.2	·	1	·
32	COc1ccc(NC(=O)C(=O)NCCC2CCCCN2S(=O)(=O)c2ccc(F)cc2)cc1 (centres undefined)	0.62	·	-18	-2.3	1.5	·	i
33	CC(C)C(=O)NNC(=O)CC(=O)Nc1ccccc1C(=O)O	0.68	-1.3	10	-3.5	1.6	1	·
34	O=C(Nc1ccc(F)cc1)C1CCN(C(=O)NCc2ccccc2)CC1	0.67	-2.6	1	2.0	0.4	1	i
35	COc1cccc(C(=O)NNc2nc(C)cc(C)n2)c1	0.72	6.2	1	-2.4	1.4	70	·
36	Cc1ccc(C(=O)NCC2CCCO2)cc1S(=O)(=O)N1CCCCC1 (centres undefined)	0.69	-1.2	-2	-0.2	0.5	-4	i
37	COC(=O)c1c(NC(=O)CN2CCN(c3cccc(Cl)c3)CC2)sc(C)c1C	0.69	0.8	12	-0.6	-5.9	-1	i
38	O=C(OC1CCOC1=O)c1ccc(CO)cc1 (centres undefined)	0.66	2.1	-5	1.6	-0.1	-3	i
39	O=C1N=C2SCCN2/C1=C\c1ccc(Cl)cc1	0.74	-3.5	12	1.2	0.5	6	·
40	COc1ccc(S(=O)(=O)N2CCC(C(=O)NCC3CCCO3)CC2)cc1Cl (centres undefined)	0.74	-6.6	2	2.7	2.8	5	i
41	COC(=O)c1c(N2C(=O)[C@H]3[C@@H](C2=O)[C@]2(C(=O)Nc4c(C)cccc42)N2CCC[C@@H]32)sc(C)c1C	0.67	1.4	3	14	0.9	8	·
42	CCCc1cc(-c2n[nH]c(=S)n2Cc2ccccc2)cs1	0.68	2.1	0	-2.5	5.0	50	i
43	Cc1ccc(C(C(=O)NC2CCCC2)N(Cc2cccnc2)C(=O)c2snc(C(N)=O)c2N)o1 (centres undefined)	0.69	-1.8	·	4.1	-52	-14	·
44	CC(C)Cc1ccc(CN2CCCC(NC(=O)c3ccoc3)C2)cc1 (centres undefined)	0.61	2.5	16	4.0	3.6	-5	i
45	O=C1NCC(COCc2ccccc2)O1 (centres undefined)	0.74	-1.7	-2	1.8	1.5	-2	·
46	CCN(CC)S(=O)(=O)c1ccc2oc(SCC(=O)NCc3ccccc3)nc2c1	0.74	-1.3	0	-0.9	1.0	-6	·
47	COc1ccc(-c2nnc3sc(-c4ccccn4)nn23)cc1	0.72	4.7	·	·	3.9	-11	·
48	CC(=O)NC12CC3CC(C1)CC(C(=O)NCc1ccc(C)cc1)(C3)C2	0.65	-2.2	12	3.7	4.1	-1	i
49	COc1ccc(C(=O)N2CCN(CCc3ccccc3)CC2)cc1[N+](=O)[O-]	0.73	2.9	2	0.7	3.3	3	i
50	O=C(c1ccc2c(c1)OCO2)N1CCN(c2ccc(F)cc2)CC1	0.64	9.4	8	-1.5	1.1	97*	·
51	CN(CC(=O)Nc1cccc(F)c1)C(=O)CCCc1c[nH]c2ccccc12	0.68	-3.5	-2	-0.3	-0.6	52	i
52	O=C(CSc1nnc(CCCOc2ccc(Cl)cc2Cl)o1)Nc1ccc(C(=O)O)cc1	0.68	-4.8	7	-2.6	1.3	6	·
53	Cc1nn(Cc2ccccc2)c(C)c1NC(=O)CCCn1nc([N+](=O)[O-])cc1C	0.71	0.9	-4	-1.1	2.0	-22	i
54	CC(C)C/C=C1\CCc2c([nH]c3ccccc23)C1=O	0.7	1.6	21	0.3	1.6	·	i
55	Cc1cc(C)c(C#N)c(SCCN2CCOCC2)n1	0.67	1.6	-6	4.1	4.7	-13	i
56	COC(=O)c1cccc(C#CC(NP(=O)(c2ccccc2)c2ccccc2)c2ccccc2)c1 (centres undefined)	0.74	3.3	22	-2.8	0.9	3	i
57	Cc1cc(C)c(C)c(OCCCN(C)C)c1	0.59	-0.2	3	-1.5	2.3	-3	·
58	Cc1cnc(C(=O)N2CCCC(N3CCN(c4ccccc4F)CC3)C2)cn1 (centres undefined)	0.65	·	-5	1.6	1.5	·	i
59	Cc1cccc(C(=O)NCC(=O)NC(C)CCc2ccccc2)c1 (centres undefined)	0.74	-0.5	-2	-0.8	0.9	-8	i
60	CCOC(=O)C1(CCCc2ccccc2)CCN(C2CCN(C(C)=O)CC2)CC1	0.64	-3.2	-5	0.0	2.1	·	i
61	Cc1ccc(S(=O)(=O)c2c(C)cc(C)nc2N2CCOCC2)cc1	0.65	1.6	9	-2.5	2.1	7	i
62	CCOC(=O)N1CCN(C(=O)CCN2C(=O)COc3ccccc32)CC1	0.68	-2.9	0	-0.1	2.2	-10	·
63	COc1ccc(S(=O)(=O)N(C)c2ccc(C(=O)Nc3ccccc3C(=O)N3CCOCC3)cc2)cc1	0.67	-6.3	2	-1.7	-0.6	-1	i
64	Cn1cnc2c(SCc3ccccc3)ncnc21	0.7	·	-7	0.4	5.0	·	i
65	c1ccc2c(c1)nc1n2CC2CON(C3CCCCC3)C12 (centres undefined)	0.68	2.9	1	1.9	4.2	-2	i

Compounds from the list above with a cyano group, in the order listed:
no.	molecule	Ecoli growth	LANA-H2B inh	Beta2AR agonist	HNF4A DNA FP	UCH37 inh	ALR inh	FGF22 binding
25	Cc1c(C#N)c(O)[nH]c(=O)c1N=Nc1ccc(S(N)(=O)=O)cc1	0.7	-0.9	-6	7.4	16	-12	i
55	Cc1cc(C)c(C#N)c(SCCN2CCOCC2)n1	0.67	1.6	-6	4.1	4.7	-13	i
